eIF4H FP inh: inhibitors of RNA binding by human eIF4H; Q15056; eIF4H fluorescence polarization binding assay; inhibition, % at 35 µM; 0.94% of 290,000 active;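 active means 50% or more with normal probe brightness, or confirmed in later tests; about a fifth of its hits are not listed in these tables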;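 further: calls also rest on retests at 20 µM and on dose response follow-up; 0% = protein and probe with vehicle and 100% = probe without protein; strong numbers were not always called active; many hits fall short of the cut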
CSC inhib: cancer stem cell inhibition | cancer stem cell-like cells viability, luminescence | inhibition, % at 7.5 µM | 1.1% of 300,000 active;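 active means mean at 75% or more and at least half the replicates too; tested in HMLE shEcad cells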;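 further: 0% = median of negative and 100% = median of positive control wells; the first replicate is given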
PABP FP inh: blocks human PABP binding to poly(A) RNA; P11940; inhibition, % at 35 µM; AID 2014; 1% of 290,000 active; fluorescence polarization;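 active means 50% or more with normal probe brightness, or confirmed in later tests; about a fifth of its hits are not listed in these tables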;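 further: calls also rest on retests at 20 µM and on dose response follow-up; controls were probe without protein and protein plus probe with vehicle; some compounds called inactive have numbers as strong as hits; many hits fall short of the cut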
Target sequence (P11940 whole entry, looked up): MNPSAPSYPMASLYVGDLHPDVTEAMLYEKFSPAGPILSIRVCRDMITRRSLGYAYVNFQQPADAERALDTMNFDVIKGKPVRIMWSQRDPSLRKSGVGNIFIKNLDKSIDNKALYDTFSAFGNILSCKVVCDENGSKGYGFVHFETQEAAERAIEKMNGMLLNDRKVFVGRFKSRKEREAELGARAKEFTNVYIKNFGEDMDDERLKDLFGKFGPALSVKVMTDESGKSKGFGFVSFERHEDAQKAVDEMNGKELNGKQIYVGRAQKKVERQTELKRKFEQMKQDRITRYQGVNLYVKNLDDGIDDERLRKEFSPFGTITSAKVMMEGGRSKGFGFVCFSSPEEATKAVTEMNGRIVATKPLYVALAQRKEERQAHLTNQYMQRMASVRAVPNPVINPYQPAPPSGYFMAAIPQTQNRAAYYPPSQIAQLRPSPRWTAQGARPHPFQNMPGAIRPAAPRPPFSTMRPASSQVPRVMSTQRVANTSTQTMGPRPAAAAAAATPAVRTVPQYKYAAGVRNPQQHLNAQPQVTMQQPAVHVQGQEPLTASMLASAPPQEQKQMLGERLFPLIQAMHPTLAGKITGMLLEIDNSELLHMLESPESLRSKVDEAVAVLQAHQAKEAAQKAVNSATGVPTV
MT1-MMP act inh: inhibitors of human MT1-MMP activation. 0.061% of 360,000 active. GFP/RFP ratio change, % at 20 µM. AID 651647. P50281. HT1080 RFP-PRO-GFP cells, GFP/RFP ratio fluorescence, overnight; percent of plate control window, DMSO zero;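 active means GFP/RFP ratio change of at least 30% with cell ATP level not reduced by more than half and red fluorescence within 50% of control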; further: strong numbers were not always called active
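Assay system: HT1080 cells carrying an RFP-PRO-GFP reporter | Dosing: Single dose of 20 µM compound, 1% DMSO final | Incubation: Cells overnight before dosing, compound overnight, 37 °C, 5% CO2 | Evaluation: GFP/RFP fluorescence ratio | Control set: DMSO and RFP-L50D-GFP cell wells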
Yeast UUG start: modulators of start codon recognition fidelity in yeast; S. cerevisiae UUG-firefly luciferase reporter, luminescence/redox ratio; activity score, % at 18.7 µM; 0.13% of 350,000 active; AID 602363;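 active means replicate mean at a twofold rise or more, about +100% in these data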;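 further: firefly luciferase made from a UUG start codon reports start codon fidelity; reporter light over untreated wells divided by growth signal over untreated wells; some hits fall short of that in this replicate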
HIV Env fusion: blocks HIV Env-driven cell-cell fusion; HeLa-JRFL Env/CEM21 cell fusion, luciferase; inhibition, % at 12.3 µM; 1.1% of 360,000 active;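 active means mean replicate inhibition score of at least 50 and every replicate individually at or above 50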;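 further: 0% = plate neutral controls and 100% = maraviroc near 300 nM; one replicate is shown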
Rce1 inhib: blocks yeast Ras-converting enzyme. 0.27% of 290,000 active. calls only. AID 2563. yeast membranes, quenched prenylated peptide cleavage fluorescence;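 active means fall in fluorescence gain of 50% or more versus controls, with final raw signal at or below 3038400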;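 further: plate controls were neutral control wells for no effect and wells lacking membranes for full effect; tested at 10 µM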
eIF4H FP inh retest: also measured in eIF4H FP inh; calls as there; inhibition, %; compound at 20 µM; confirmation average;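 mean of two retest wells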
PABP FP inh retest: further read-out of PABP FP inh, marked with its call; inhibition, %; compound at 20 µM; confirmation repeats;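 mean of two retest wells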
MT1-MMP act inh RFP: also measured in MT1-MMP act inh; calls as there; RFP signal change, %; measured here: RFP expression control read;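 0 = vehicle wells; hits needed this value within 50% of zero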
* = called active by the depositor; & = joins results of further samples. This is a subset. The share of hits here may be higher or lower than overall.

How did CCc1ccc(NC(=O)C(=O)NCC2CCCO2)cc1 (centres undefined) do in these assays?
eIF4H FP inh: -2.3; CSC inhib: 2.5; PABP FP inh: -3.8; MT1-MMP act inh: 1.4; Yeast UUG start: -7.2; HIV Env fusion: -10.8; Rce1 inhib: inactive; MT1-MMP act inh RFP: -0.8

How did CCOC(=O)C1(CCOc2ccccc2)CCN(Cc2ccc(NC(C)=O)cc2)CC1 do in these assays?
eIF4H FP inh: -5.9; CSC inhib: 22.4; PABP FP inh: -5.5; MT1-MMP act inh: 0.1; HIV Env fusion: -4.3; Rce1 inhib: inactive; MT1-MMP act inh RFP: 0.6

What do the screens show for `COc1ccc(C2C(C#N)=C(N)OC3=C2C(=O)CC(C)(C)C3)c(OC)c1OC` (centres undefined)?
eIF4H FP inh: -6.2; CSC inhib: 8.1; PABP FP inh: 1.5; MT1-MMP act inh: 3.4; Yeast UUG start: -1.5; Rce1 inhib: inactive; MT1-MMP act inh RFP: -0.2

What do the screens show for `COc1ccc(Cl)cc1Nc1nc(N)c2ccccc2n1`?
eIF4H FP inh: -2.3; CSC inhib: 18.0; PABP FP inh: -8.8; MT1-MMP act inh: -3.7; Yeast UUG start: -8.3; HIV Env fusion: -145.8; Rce1 inhib: inactive; MT1-MMP act inh RFP: -8.3

What do the screens show for `COc1ccc(C(c2nnnn2CCc2ccccc2)N2CCN(C3CCCC3)CC2)cc1` (centres undefined)?
eIF4H FP inh: -0.3; CSC inhib: 39.3; PABP FP inh: 5.2; MT1-MMP act inh: 1.8; Yeast UUG start: -12.8; HIV Env fusion: -64.3; Rce1 inhib: inactive; MT1-MMP act inh RFP: 6.8

What do the screens show for `CCCCCCCN1CCN=C1N(C)C`?
CSC inhib: 2.4; MT1-MMP act inh: 0.4; Yeast UUG start: -7.2; HIV Env fusion: -2.5; MT1-MMP act inh RFP: 5.0

Results for CCC(C)c1ccccc1NC(=O)C(C)N(C)Cc1cccc(OC)c1 (centres undefined) ?
eIF4H FP inh: 21.8; CSC inhib: 2.1; PABP FP inh: 3.5; MT1-MMP act inh: -3.0; Yeast UUG start: -11.0; HIV Env fusion: 21.8; Rce1 inhib: inactive; MT1-MMP act inh RFP: -8.0

How did N#Cc1ccccc1CSc1nc2ncc(Br)cc2[nH]1 do in these assays?
eIF4H FP inh: 0.8; CSC inhib: -4.7; PABP FP inh: 45.3; MT1-MMP act inh: 2.3&-6.9; Yeast UUG start: -20.7&-9.0; HIV Env fusion: -30.3; Rce1 inhib: inactive; MT1-MMP act inh RFP: 2.2&3.2

What do the screens show for `Cc1cccc(N/C(N)=N/c2nc3c(c(=O)[nH]2)CCCC3)c1`?
eIF4H FP inh: 5.6; CSC inhib: 8.5; PABP FP inh: -4.5; MT1-MMP act inh: 10.1; Yeast UUG start: 2.0; HIV Env fusion: -20.9; Rce1 inhib: inactive; MT1-MMP act inh RFP: 6.4

What do the screens show for `COc1ccccc1NS(=O)(=O)c1cccc(NS(=O)(=O)c2cc(C(=O)O)ccc2Cl)c1`?
MT1-MMP act inh: -4.3; Yeast UUG start: -8.8; HIV Env fusion: 12.1; MT1-MMP act inh RFP: -0.1

Results for CNc1cc(C)nc(N2CCOCC2)n1 ?
eIF4H FP inh: 91.9*; CSC inhib: -9.9; PABP FP inh: 39.1; MT1-MMP act inh: -0.9; HIV Env fusion: 9.3; Rce1 inhib: inactive; eIF4H FP inh retest: 57.9*; PABP FP inh retest: 37.2; MT1-MMP act inh RFP: 1.9

What do the screens show for `O=Cc1ccc(N2CCCCC2)cc1`?
eIF4H FP inh: 7.2; CSC inhib: -10.3; PABP FP inh: -11.7; MT1-MMP act inh: -8.0; Yeast UUG start: -13.4; HIV Env fusion: 4.5; Rce1 inhib: inactive; MT1-MMP act inh RFP: -3.0

How did COCCSc1ccccc1C(=O)N1CCCC(C)C1 (centres undefined) do in these assays?
eIF4H FP inh: -5.5; CSC inhib: -6.2; PABP FP inh: -2.8; MT1-MMP act inh: 2.1; HIV Env fusion: -2.8; Rce1 inhib: inactive; MT1-MMP act inh RFP: -3.7

Results for Cc1nnc(SCc2cc(=O)[nH]c(N3CCCCC3)n2)s1 ?
CSC inhib: -5.4; MT1-MMP act inh: -0.2; Yeast UUG start: -4.4; HIV Env fusion: -49.4; Rce1 inhib: inactive; MT1-MMP act inh RFP: -0.2

What do the screens show for `Cc1cccc(N2CCN(C(=O)c3ccc4ncsc4c3)CC2)c1C`?
eIF4H FP inh: -9.9; PABP FP inh: 0.2; MT1-MMP act inh: 3.5; Yeast UUG start: -19.3; HIV Env fusion: -85.7; MT1-MMP act inh RFP: -13.9

What do the screens show for `Cc1c(Cl)cccc1NC(=S)NCCc1ccc(C(F)(F)F)cc1`?
eIF4H FP inh: -2.7; CSC inhib: 31.2; PABP FP inh: 2.1; MT1-MMP act inh: 2.1; Yeast UUG start: -22.6; HIV Env fusion: 3.0; Rce1 inhib: inactive; MT1-MMP act inh RFP: -3.3

What do the screens show for `COc1ccc(N=Cc2nc(-c3ccco3)oc2O)cc1`?
eIF4H FP inh: 5.3; CSC inhib: 1.1; PABP FP inh: 5.6; MT1-MMP act inh: 2.2; Yeast UUG start: -22.9; Rce1 inhib: inactive; MT1-MMP act inh RFP: 1.0

Results for COc1cnc(-c2cccc(C(F)(F)F)c2)c(NC(=O)c2cc3ccccc3s2)n1 ?
MT1-MMP act inh: -3.3; Yeast UUG start: -4.5; HIV Env fusion: -17.5; MT1-MMP act inh RFP: -6.7

What do the screens show for `COc1ccc(C(=O)OCc2ccc(C)cc2)cc1S(=O)(=O)N1CCOCC1`?
CSC inhib: -3.0; MT1-MMP act inh: 0.3; Yeast UUG start: 2.2; MT1-MMP act inh RFP: -1.7

How did NC(=O)C1CCN(C(=O)/C=C/c2ccco2)CC1 do in these assays?
eIF4H FP inh: 14.3; CSC inhib: -6.3; PABP FP inh: 13.2; MT1-MMP act inh: -2.4; Yeast UUG start: 3.2; Rce1 inhib: inactive; MT1-MMP act inh RFP: 1.9

How did O=C([O-])c1ccccc1-[n+]1c(-c2ccccc2)cc(-c2ccccc2)cc1-c1ccccc1 do in these assays?
CSC inhib: -4.0; MT1-MMP act inh: 2.3; Yeast UUG start: -0.1; HIV Env fusion: 0.2; Rce1 inhib: inactive; MT1-MMP act inh RFP: -5.6

How did O=C(O)Cn1c(=O)c2c3c(sc2n(Cc2ccc(Cl)cc2Cl)c1=O)CCCC3 do in these assays?
eIF4H FP inh: -7.0; CSC inhib: 2.3; PABP FP inh: 1.8; MT1-MMP act inh: -0.7; HIV Env fusion: -15.7; Rce1 inhib: inactive; MT1-MMP act inh RFP: 1.3

How did COc1ccc(NC(=O)c2cccc3c(-c4ccc(O)c(OC)c4)coc23)cc1 do in these assays?
MT1-MMP act inh: -0.3; Yeast UUG start: -13.5; HIV Env fusion: -23.5; MT1-MMP act inh RFP: -8.9

Results for CCOc1ccccc1NC(=O)CNC(=O)CNC(=O)Cc1ccccc1 ?
eIF4H FP inh: -2.9; CSC inhib: -10.9; PABP FP inh: 0.0; MT1-MMP act inh: -2.6; Yeast UUG start: -20.7; HIV Env fusion: 0.1; Rce1 inhib: inactive; MT1-MMP act inh RFP: -2.7

What do the screens show for `CC(/C=N/NC(=O)Cc1cccn1C)=C\c1ccccc1`?
eIF4H FP inh: -12.9; CSC inhib: 3.4; PABP FP inh: -1.1; MT1-MMP act inh: 1.7; HIV Env fusion: -3.4; Rce1 inhib: inactive; MT1-MMP act inh RFP: 6.6

How did O=C(O)CN1C(=O)/C(=C\c2cccc(OC(=O)c3ccco3)c2)SC1=S do in these assays?
eIF4H FP inh: 38.1; CSC inhib: 4.8; PABP FP inh: 15.9; MT1-MMP act inh: -1.7; Yeast UUG start: -1.1; HIV Env fusion: -6.7; Rce1 inhib: inactive; MT1-MMP act inh RFP: 3.2

Results for CCCC[n+]1c(C)sc2ccc(C)cc21 ?
eIF4H FP inh: 98.5; PABP FP inh: 40.0; MT1-MMP act inh: -1.7; HIV Env fusion: 17.4; Rce1 inhib: inactive; eIF4H FP inh retest: 12.7; PABP FP inh retest: 26.8; MT1-MMP act inh RFP: 4.0

Results for O=C1CSC(=S)N1/N=C/c1cccc(C(F)(F)F)c1 ?
eIF4H FP inh: -2.8; CSC inhib: -5.1; PABP FP inh: 2.0; MT1-MMP act inh: 8.9; Yeast UUG start: -23.9; HIV Env fusion: -11.0; Rce1 inhib: inactive; MT1-MMP act inh RFP: 14.1

How did COc1cccc(-c2nnc(SCC(=O)Nc3ccc(OC)c(OC)c3)n2N)c1 do in these assays?
eIF4H FP inh: -5.2; CSC inhib: 30.0; PABP FP inh: 9.2; MT1-MMP act inh: -0.2; Yeast UUG start: -8.4; HIV Env fusion: -30.8; Rce1 inhib: inactive; MT1-MMP act inh RFP: -0.5

How did CCOC(=O)CSc1nc2cc(S(=O)(=O)N3CCOCC3)ccc2n1CC do in these assays?
CSC inhib: -10.0; MT1-MMP act inh: 0.3; Yeast UUG start: -0.1; HIV Env fusion: 0.0; Rce1 inhib: inactive; MT1-MMP act inh RFP: 1.6

What do the screens show for `CCc1cc2c(=O)c(Oc3ccccc3)c(C)oc2cc1O`?
eIF4H FP inh: -6.9; CSC inhib: -10.5; PABP FP inh: 4.1; MT1-MMP act inh: -2.1; HIV Env fusion: -17.1; Rce1 inhib: inactive; MT1-MMP act inh RFP: -5.9

Results for O=C(COc1ccc(S(=O)(=O)NCc2ccccc2)cc1)N1CCOCC1 ?
eIF4H FP inh: -0.5; CSC inhib: 1.3; PABP FP inh: -10.5; MT1-MMP act inh: 1.1; Yeast UUG start: -1.8; MT1-MMP act inh RFP: 3.0

Results for O=C(CSc1nc2ccccc2o1)N1CCN(c2ccccc2)CC1 ?
eIF4H FP inh: -2.0; PABP FP inh: -6.8; MT1-MMP act inh: 2.4; Yeast UUG start: -14.9; Rce1 inhib: inactive; MT1-MMP act inh RFP: -2.0

What do the screens show for `CCCCC(C)Sc1nc2c([nH]1)c(=S)n(C)c(=O)n2C` (centres undefined)?
MT1-MMP act inh: 10.4; Yeast UUG start: -26.0; HIV Env fusion: -0.6; MT1-MMP act inh RFP: -10.9

Results for O=C(CC1NC2CCCCC2NC1=O)Nc1cccc(C(F)(F)F)c1 (centres undefined) ?
eIF4H FP inh: -6.9; CSC inhib: 3.5; PABP FP inh: 25.9; MT1-MMP act inh: 0.4; Yeast UUG start: -5.5; HIV Env fusion: -17.1; Rce1 inhib: inactive; MT1-MMP act inh RFP: -2.8

What do the screens show for `Cc1cc(OC(=O)c2c(C)cc(O)cc2O)cc(O)c1C(=O)O`?
CSC inhib: -11.2; MT1-MMP act inh: -3.6; Yeast UUG start: -18.8; Rce1 inhib: inactive; MT1-MMP act inh RFP: -1.5

Results for Cc1c(NC(=O)c2cc(-c3ccccc3)on2)c(=O)n(-c2ccccc2)n1C ?
eIF4H FP inh: -3.2; PABP FP inh: -2.6; MT1-MMP act inh: 5.4; Yeast UUG start: -2.8; Rce1 inhib: inactive; MT1-MMP act inh RFP: 3.5

What do the screens show for `O=C1c2ccccc2C(=O)c2cc(NC(=O)C3CC3)ccc21`?
eIF4H FP inh: 11.2; CSC inhib: -9.0; PABP FP inh: -2.0; MT1-MMP act inh: 1.4; Yeast UUG start: -26.2; HIV Env fusion: -44.4; Rce1 inhib: inactive; MT1-MMP act inh RFP: 1.4

What do the screens show for `Nc1cccc(Oc2ccc3c(c2)C(=O)NC3=O)c1`?
eIF4H FP inh: -3.3; CSC inhib: -5.0; PABP FP inh: 3.1; MT1-MMP act inh: -3.0; Yeast UUG start: -18.2; HIV Env fusion: -16.0; Rce1 inhib: inactive; MT1-MMP act inh RFP: -3.2
